VDR inh – Inhibitors of the vitamin D receptor (VDR): qHTS. Vitamin D3 receptor (Homo sapiens), P11473. VDR-SRC2-3 peptide fluorescence polarization, 2 h. Potency, µM, without a hit: max response, negative = inhibition, usual class: inhibitors. 400,000 compounds, 0.93% hits. AID 504847, 2011; active = well fitted inhibition curve with a large enough effect; inconclusive = small, poorly fitted or top-dose-only effect, or another doubt; inactive = no such curve, though single readings can be large or run the other way; note: series mostly up to about 120 µM
Target sequence (P11473 whole entry, looked up): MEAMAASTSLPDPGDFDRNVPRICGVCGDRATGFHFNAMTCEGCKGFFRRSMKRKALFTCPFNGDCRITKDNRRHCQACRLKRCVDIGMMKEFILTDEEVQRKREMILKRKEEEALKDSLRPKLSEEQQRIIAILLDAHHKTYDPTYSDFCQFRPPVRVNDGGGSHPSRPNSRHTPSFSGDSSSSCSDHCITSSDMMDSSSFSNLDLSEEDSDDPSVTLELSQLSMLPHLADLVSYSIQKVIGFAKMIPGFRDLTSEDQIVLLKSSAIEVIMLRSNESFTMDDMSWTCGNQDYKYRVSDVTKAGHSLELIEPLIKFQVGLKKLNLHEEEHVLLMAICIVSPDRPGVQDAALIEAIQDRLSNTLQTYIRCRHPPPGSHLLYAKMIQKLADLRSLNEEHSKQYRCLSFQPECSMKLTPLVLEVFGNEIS
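The screen uses fluorescence polarization to detect compounds that interfere with recruitment of the SRC2-3 coactivator peptide to VDR; plates are read after 2 h at room temperature.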
The depositor's hits bear a star; ? = inconclusive; & = joins results of further samples. % is set by controls: 0 for no effect and ±100 for the full control effect; potency is the fitted concentration of half-maximal effect. Some of the compounds tested; rates above refer to the full screens.

SMILES	VDR inh
CC(C)c1ccc(C(=O)Nc2cc(-c3ccccc3F)nn2-c2ccccc2)cc1	0%
Cc1cc(C(=O)C(=O)O)c(C)n1-c1ccc(Cl)c(Cl)c1	?
CN(N=Nc1nc[nH]c1C(=O)NN)C1CCCCC1	-17%
Cn1c(N2CCN(C(=O)NCc3ccccc3)CC2)nc2ccccc21	3%
CCOC(=O)C1(S(=O)(=O)c2ccc(Cl)cc2)CCN(Cc2ccc(Cl)cc2)CC1	-11%
COc1ccc(Cl)cc1Nc1nc(N)c2ccccc2n1	3%
O=C(CCCCCn1c(=O)c2sccc2n(Cc2ccc(Cl)cc2)c1=O)NCc1ccc2c(c1)OCO2	89µM*
COc1ccc(C2C(C#N)=C(N)OC3=C2C(=O)CC(C)(C)C3)c(OC)c1OC (stereo unspecified)	15%
CCOC(=O)C1(CCOc2ccccc2)CCN(Cc2ccc(NC(C)=O)cc2)CC1	5%
CCCCCCCN1CCN=C1N(C)C	0%
COc1ccc(C(c2nnnn2CCc2ccccc2)N2CCN(C3CCCC3)CC2)cc1 (stereo unspecified)	10%
CCC(C)c1ccccc1NC(=O)C(C)N(C)Cc1cccc(OC)c1 (stereo unspecified)	9%
N#Cc1ccccc1CSc1nc2ncc(Br)cc2[nH]1	-9%
Cc1cccc(N/C(N)=N/c2nc3c(c(=O)[nH]2)CCCC3)c1	1%
CNc1cc(C)nc(N2CCOCC2)n1	-15%
O=Cc1ccc(N2CCCCC2)cc1	1%
Cc1nnc(SCc2cc(=O)[nH]c(N3CCCCC3)n2)s1	6%
COCCSc1ccccc1C(=O)N1CCCC(C)C1 (stereo unspecified)	-22%
CCOc1ccc(NC(=O)CC2C(=O)N(c3ccc(C)cc3)C(=O)N2CCC2=CCCCC2)cc1 (stereo unspecified)	-5%
Cc1cc(C)cc(NC(=O)N2CCC(NC(=O)c3ccco3)CC2)c1	-3%
COc1cccc(C(=O)Nc2ccc(C)cc2)c1	1%
COc1cccc(CS(=O)(=O)c2nnnn2C2CCCCC2)c1	3%
O=c1[nH][nH]c(C(F)(F)F)c1C=NCc1cccs1	-16%
Cc1cc(N2CCCC2)ccc1NC(=O)COc1ccc(Cl)cc1	7%
O=C(COc1ccccc1)NNC(=S)NC(=O)c1ccc(Cl)cc1Cl	-2%
CC1(C)SC2c3ccccc3C(=O)N2[C@@H]1C(=O)NC1CC1 (stereo partly specified)	13%
Cc1ccc(CSCc2ccc(C(=O)NCCc3ccc(Cl)cc3)o2)cc1	1%
FC(F)(F)c1ccc(N2CCOCC2)c(Nc2nc3ccccc3n3cnnc23)c1	0%
O=C(CN1C(=O)COc2ccc(S(=O)(=O)N3CCCCC3)cc21)NCc1ccc(Cl)cc1	5%&7%
CCc1ccc(NC(=O)C(=O)NCC2CCCO2)cc1 (stereo unspecified)	-3%
Cc1ccc([C@@H]2CC=C(C(=O)O)CN2S(=O)(=O)c2ccc(C)cc2)cc1	-5%
CCCCc1cc(=O)oc2cc(C)cc(OCC(=O)N[C@@H](CSCc3ccccc3)C(=O)O)c12	-22%
CC(NC(=O)c1ccc(Br)s1)c1ccncc1 (stereo unspecified)	-8%
COC(=O)c1ccc(NC(=O)CSc2nnc(C)n2-c2ccccc2)cc1	-8%
CCN(CC)c1ccc(N)cc1S(=O)(=O)Nc1ccccc1OC	40µM*
O=C(CCOc1ccccc1)Nc1ccnn1C1CCN(C(=O)CCC(F)(F)F)CC1	0%
CCNc1ncc2nc(-c3cc(F)cc(F)c3)c(=O)n(-c3ccccc3)c2n1	-19%
Cc1ccc(-c2nc3ccccc3[nH]2)cc1NC(=O)/C=C/c1ccco1	-9%
COC(=O)c1ccccc1NS(=O)(=O)c1ccc2c3c(cccc13)C(=O)N2	-3%
O=c1[nH]c(Sc2ccc([N+](=O)[O-])cc2[N+](=O)[O-])nc2ccccc12	?
NC(=O)c1ccsc1NC(=O)CSc1nnc2ccccn12	-4%
CCn1c2ccccc2c2cc(NC(=O)CSc3nnc(-c4cccc(OC)c4)n3N)ccc21	13%
Nc1cc2c3c(cccc3c1)C(=O)N(CCN1CCCC1)C2=O	0%
CC1=CC(C)(C)N(C(=O)CSc2nnc(-c3ccc(C)cc3)o2)c2ccc(C)cc21	5%
CC#CCN1c2ccccc2[C@]23C[C@@H](C(=O)OC)N(C(=O)NC4CCCCC4)C2=NC(C(=O)OC)=C(C(=O)OC)[C@H]13	1%
CCOC(=O)c1ccc(-n2cncn2)nc1	-14%
CSc1ccccc1NC(=O)CN(C)C(C)C(=O)Nc1ccc(C#N)cc1 (stereo unspecified)	7%
Cc1c(CCNC(=O)c2ccc(C(C)(C)C)cc2)sc2nc(-c3ccc(F)cc3)nn12	2%
Cc1sc2nc(CSCC(=O)Nc3ccccc3C#N)[nH]c(=O)c2c1C	-11%
Cc1cc(Cl)ccc1OCc1cn2cccnc2n1	-5%
CCCc1cc(=O)[nH]c(SCC(=O)N2CCN(S(=O)(=O)c3ccc(C)cc3C)CC2)n1	-3%
COc1cc(-n2c(C)nc3cccnc32)c(Cl)cc1C(=O)O	-10%
CCC(=O)NS(=O)(=O)c1cccnc1Nc1ccccc1Cl	-13%
CCOC(=O)N1CCN(C(=O)c2cn(C)c3ccc(S(=O)(=O)N4CCCC4)cc3c2=O)CC1	5%
COC(=O)c1c(CCl)noc1C(=O)NCC1CCCO1 (stereo unspecified)	-20%
Cc1occc1-c1nnc(SCC(=O)NC2CCC(C)CC2)o1 (stereo unspecified)	-6%
COc1cnc(-c2cccc(C(F)(F)F)c2)[nH]c1=O	-8%
Cc1cc(NC(=O)NCc2ccccc2)c(=O)n(Cc2ccccc2F)c1	-12%
Cc1ccc(-c2csc(NC(=O)Cc3ccc(F)cc3)n2)o1	?
CC(Sc1nnnn1C)C(=O)Nc1cc(S(=O)(=O)N2CCCCC2)ccc1Cl (stereo unspecified)	-2%

Remaining list, next part:
SMILES	VDR inh
OCC[C@H]1C[C@H](O)[C@@H](O)[C@@]2(CCc3ccccc3O2)O1	14%
N#CCSc1nc2c(c(C3CC=CCC3)c1C#N)CCC2 (stereo unspecified)	3%
Cc1cccc(C)c1NC(=O)CN1C(=O)NC(C)(CCc2ccccc2)C1=O (stereo unspecified)	-8%
Cc1c(Cl)cccc1Nc1nc2ccc(C(=O)c3ccccc3)cc2n2cnnc12	15%
O=C1NC(c2ccc(-c3ccccc3[N+](=O)[O-])o2)C(C(=O)c2ccccc2)C(O)(C(F)(F)F)N1 (stereo unspecified)	5%
Cc1nn(CC(=O)c2ccc3c(c2)OCCO3)c(=O)c(C#N)c1C	2%
CC(C)OCc1c(C(=O)OC/C(O)=C(\C#N)c2nc3ccccc3[nH]2)oc2ccccc12	18%
CC(=O)c1cccc(Nc2ccc(-c3ccccc3F)nn2)c1	-3%
Cc1cc(C)c(O)c(-c2cc(C(=O)NCc3ccccc3)[nH]n2)c1	-8%
CCOC(=O)CCCOC(=O)c1ccc(S(=O)(=O)N(C)C)cc1	10%
CC(/C=C/c1ccccc1)=N\NC(=O)c1ccc2c(c1)OCCO2	-5%
CCO[C@@H]1OC(C(=O)NCc2nc3ccccc3[nH]2)=C[C@H](C(C)(C)C)[C@H]1CCCO	-5%
CCC(=NCCc1c(C)[nH]c2ccc(C)cc12)C1=C(O)CC(c2ccccc2)CC1=O (stereo unspecified)	-3%
CCc1nn(C(CC)C(=O)NCCCN2CC(C)CC(C)C2)c(=O)c2cc3oc(C)cc3n12 (stereo unspecified)	4%
O=C(NC1CCCC1)C(=O)N(Cc1cccnc1)C(C(=O)NCC1CCCO1)c1ccco1 (stereo unspecified)	0%
CCc1ccccc1N1CC(c2nc3ccccc3n2CCCCOc2ccccc2)CC1=O (stereo unspecified)	14%
CCC(=O)N1CCc2cc(S(=O)(=O)CCC(=O)NCc3ccco3)ccc21	-2%
Cc1ccc(SCC(=O)OCC(=O)N(C)CC(=O)Nc2ccccc2Cl)cc1C	-8%
COc1ccc(NC(=O)C2(N(CC(C)C)C(=O)Cn3nnnc3N)CCCCC2)cc1	?
Cc1nn(-c2ccccc2)c(C)c1C(=O)NNC(=O)C(F)(F)F	-5%
CS(=O)(=O)n1nc(OC(=O)c2cccs2)cc1N	-25%
COC(=O)c1scc2c(Oc3ccccc3)cc(C(F)(F)F)nc12	2%
COc1cc(NS(=O)(=O)c2ccc3ccccc3c2)c2ncccc2c1	-11%
O=C(CN(Cc1ccco1)C(=O)CNS(=O)(=O)c1ccccc1)NCc1ccc(F)cc1	3%
COc1ccc(CSCC(=O)N/N=C/c2ccc(OCC(=O)N3CCCCC3)cc2)cc1	-3%
CCOc1ccc(N(C(=O)C2CCCO2)C2C=CS(=O)(=O)C2)cc1 (stereo unspecified)	1%
COc1ccc(N2CCN(C(=O)c3c(C)nn(-c4ccccc4)c3C)CC2)cc1	0%
COc1ccc(NC(=O)CSCc2cc(=O)n3nc(C4CC4)sc3n2)cc1	4%
O=S(=O)(c1ccc(F)cc1)N1CCN(C(=S)NC2CCCC2)CC1	7%
CC(C)(C)C(=O)Nc1ccccc1C(=O)NCCC(=O)Nc1ccccc1	7%
Cc1ccc2c(nc3s/c(=C/c4cccs4)c(=O)n32)c1C	11%
COc1ccc(CNC(=O)CC2C(=O)NCCN2C2Cc3ccccc3C2)cc1 (stereo unspecified)	0%
Cc1nc2ccccc2oc1=O	9%
OCCn1c(-c2ccccc2)csc1=Nc1ccccc1	-20%
COc1ccc(NC(=O)Nc2ccc3oc(C)nc3c2)cc1	3%
O=C(Nc1c2c(nn1-c1ccccc1)CS(=O)(=O)C2)c1ccco1	5%
CC(/C=N/N1C(=O)CSC1=S)=C\c1ccccc1	3%
CCOC(=O)c1cn(CC)c2ccc(Br)cc2c1=O	14%
Cn1c(CN2CCCC2)nc2cc(NC(=O)c3cccs3)ccc21	0%
Cc1ccc(CC(=O)Nc2nc3ccccc3[nH]2)cc1C	8%
Cn1cccc1C(=O)Nc1nccs1	1%
CCOc1ccc(NC(=O)c2cnsn2)cc1	-6%
O=C(NCCOc1ccc(Cl)cc1)C1CC(=O)N(c2ccc(F)cc2)C1 (stereo unspecified)	-13%
COc1cccc(/C=C2\SC(=N)N(c3ccc(F)cc3)C2=O)c1	4%
CC(=O)C1=C(C)Nc2cc(C(F)(F)F)ccc2S1	?
O=C(C=C=Nc1ccccc1)C(=O)N=C=Cc1ccccc1	?
CCn1c2ccccc2c2cc(NC(=O)CNCc3ccccc3OC)ccc21	13%
Cc1ccc(CNC(=O)c2cc(-c3ccccc3C)nn2CC2CC(c3cccnc3)=NO2)cc1 (stereo unspecified)	-18%
Cc1cc(=O)oc2cc(OCC(=O)OCC(=O)NCc3ccc4c(c3)OCO4)ccc12	9%
c1ccc(CN2CCN(c3ncnc4nc[nH]c34)CC2)cc1	-14%
CN(c1ccc(OCC(=O)NC2=NCCS2)cc1)S(=O)(=O)c1ccc(F)cc1	-12%
Cc1cccc(C)c1NC(=O)CNC(=O)c1ccc2c(c1)NC(=O)CS2	-10%
NS(=O)(=O)c1ccc(CCNCC#Cc2ccccc2)cc1	23%
O=C(CCCNC(=O)c1ccc(Cl)cc1)Nc1cccc(S(=O)(=O)N2CCCCC2)c1	-29%
Cc1ccc2c(c1)N(CCCC(=O)NCc1cccnc1)C(=O)CO2	-6%
O=[N+]([O-])c1ccc(Cl)cc1N/N=C/c1ccncc1	-7%
